Vaccinia Venus = inhibitors of vaccinia virus (Venus reporter); Vaccinia virus Venus reporter expression, fluorescence; Potency, µM (series often up to 36.5 µM), inactives show top-dose activity change, negative = inhibition, hits mostly inhibitors; hit rate 0.46% among 330,000; AID 720580; active means well fitted inhibition curve with a large enough effect; inconclusive means small, poorly fitted or top-dose-only effect; inactive means no such curve, though single readings can be large or run the other way; tested in A549 cells; also: nearly all actives have a fitted effect of over 30% in size; inactives centre near -10
VACV mCherry inh = vaccinia inhibition (mCherry reporter). Vaccinia virus mCherry reporter infection, fluorescence; about a quarter of the inactives have no number. Potency, µM (top dose mostly 36.5 µM), for inactives: top-dose activity change, negative = inhibition, most hits filed as inhibitors. hit rate 0.63% among 310,000. AID 720579; active = well fitted inhibition curve with a large enough effect; inconclusive = small, poorly fitted or top-dose-only effect; inactive = no such curve, though single readings can be large or run the other way; tested in A549 cells; also: nearly all actives have a fitted effect of over 35% in size; inactives centre near -10
Starred values were filed as active, the others as inactive; i = inactive; ? = inconclusive; . = not tested or not shown; & = joins results of further samples; [ ] = remark or other dose. % is scaled to controls: 0 for no effect and ±100 for the full control effect; potency is read from the fitted curve at half-maximal effect. The order is random; any-hit rate near 0.82%.

| Molecule | Vaccinia Venus | VACV mCherry inh |
| --- | --- | --- |
| CC(=O)COc1ccc2c3c(c(=O)oc2c1C)CCCCC3 | ? | -3% |
| CS(=O)(=O)N1CCN(c2ccc([N+](=O)[O-])c3cccnc23)CC1 | -6% | -6% |
| CCCCC(NC(C)=O)c1nc2ccccc2n1CCCC (stereo not given) | -8% | i |
| O=C(OCC(=O)N(CCc1ccccc1)Cc1ccccc1)c1ccccc1[N+](=O)[O-] | -9% | -1% |
| COc1cc(Nc2nc3c(S(=O)(=O)c4cccc(Cl)c4)nnn3c3ccsc23)cc(OC)c1 | -11%[7.34 µM] | -21%[7.34 µM] |
| O=C(C1CCN(C2CCN(Cc3cccc4c3OCO4)CC2)CC1)N1CCOCC1 | -20% | -3% |
| N#Cc1c[nH]n2c(NC3CCCCC3)c(-c3ccc(F)cc3)nc12 | ? | ? |
| COc1cc(-c2n[nH]c(=O)o2)cc(OC)c1OC | -26% | . |
| COCCn1ccc(O)c(Cc2ccc(Cl)cc2)c1=O | ? | . |
| COc1cccc(-c2ccc3c(c2)N(Cc2ccccc2OC)C(=O)C(C)S3)c1 (stereo not given) | -5% | -7% |
| CC(=O)OC1C(OC(C)=O)N(C(C)=O)C(=O)N1C(C)=O (stereo not given) | -13% | -13%[1.46 µM] |
| OC(COc1ccc2ccccc2c1)Cn1ccnc1 (stereo not given) | -13% | -11% |
| N#C/C(=C\c1ccccc1)c1nc(-c2cc3c(ccc4ccccc43)oc2=O)cs1 | -3% | -11% |
| COc1cccc(NC(=O)c2nnn(CC(=O)Nc3cc(C)cc(C)c3)c2N)c1 | 0%[7.34 µM] | i[7.34 µM] |
| CCC(=O)N1c2ccccc2CC1C(=O)NCCc1ccc(C)cc1 (stereo not given) | 5% | 4% |
| O=C(C(=O)N1CCN(c2ccncc2)CC1)c1cccc(Br)c1 | -11% | ? |
| CCN(CC(=O)NCc1ccc(F)cc1)C(=O)COc1ccc2ccccc2c1 | -11% | i |
| CC(=O)Nc1ccc(NC(=O)c2cc3c(=O)n(Cc4cccnc4)ccc3nc2C)cc1 | -1% | 3% |
| CC(OC(=O)CC1CCCCC1)C(=O)Nc1ccc(S(N)(=O)=O)cc1 (stereo not given) | -10% | i |
| Cc1c(C(=O)N2CCC(C)CC2)c(S(=O)(=O)Nc2cccc(C#N)c2)c(C)n1C | -5% | -11% |
| Cc1nc(N2CCC(C)CC2)c2c(C)c(C(=O)Nc3cc(F)ccc3C)sc2n1 | 3% | i |
| CC1CCCC(C)N1C(=O)Cn1cc(C#N)c2ccccc21 (stereo not given) | -9% | -10% |
| COc1ccc(NC(=O)c2cc3ccccc3cc2O)cc1 | -23% | -20% |
| Cc1cc(C)n2c(=S)[nH]nc2n1 | -3% | -13% |

Profiles, looked up by structure. Order of values: Vaccinia Venus, VACV mCherry inh
Entry for N#Cc1c[nH]n2c(NC3CCCCC3)c(-c3ccc(F)cc3)nc12 : ?, ?
Entry for O=C(C(=O)N1CCN(c2ccncc2)CC1)c1cccc(Br)c1 : -11%, ?
Entry for Cc1nc(N2CCC(C)CC2)c2c(C)c(C(=O)Nc3cc(F)ccc3C)sc2n1 : 3%, i
Entry for CC(=O)OC1C(OC(C)=O)N(C(C)=O)C(=O)N1C(C)=O (stereo not given) : -13%, -13%[1.46 µM]

Other structures
| Molecule | Vaccinia Venus | VACV mCherry inh |
| --- | --- | --- |
| COc1ccc(CCNC(=O)c2ccc(Cn3c(=O)c4ccccc4n(Cc4cccc(Cl)c4)c3=O)cc2)cc1OC | -24% | -25% |
| CSc1ccc(S(=O)(=O)N2CCC(C(=O)NC3CC3)CC2)cc1 | -12% | -6% |
| CCCSc1nnc2c(n1)OC(c1cccn1C)N(C(C)=O)c1ccccc1-2 (stereo not given) | -2% | -24% |
| Nc1nc2ccc(-c3nc4ccccc4o3)cc2s1 | -22% | ? |
| OCCN(CCO)Cc1ccc(Br)cc1 | 0% | -8% |
| CCN(CC)CCN(CC(=O)N(C1CCCCC1)C1CCCCC1)C(=O)c1ccco1 | -14% | -8% |
| CCOc1ccc(NC(=O)Cn2cncc2-c2ccc([N+](=O)[O-])cc2)cc1 | 0% | i |
| CC(Sc1nc2c([nH]c3ccccc32)c(=O)n1C)c1ccccc1 (stereo not given) | -15% | -17% |
| CCOc1ccc2oc(=O)cc(CN3CCN(C(=O)c4ccc(Cl)cc4)CC3)c2c1 | -21% | -14% |
| N#Cc1ccccc1OCC(=O)N(C1CCCCC1)C1CCS(=O)(=O)C1 (stereo not given) | -4% | -4% |
| CCCCn1c(N)c(N(Cc2ccccc2OC)C(=O)C(C)C)c(=O)[nH]c1=O | -4% | -7% |
| Cc1ccn2cc(C(=O)Nc3cccc(C(=O)NC4CC4)c3)nc2c1 | -11% | -5% |
| O=C(NCCc1ccccn1)c1ccc2nc(Cc3ccccc3F)oc2c1 | -11% | i |
| Cn1nc([N+](=O)[O-])nc1Sc1cccc2cccnc12 | ? | ? |
| CC1Sc2ccc(S(=O)(=O)N3CCC(C(=O)N(C)Cc4ccco4)CC3)cc2NC1=O (stereo not given) | -6% | -20% |
| CCc1ccccc1Nc1ncnc2c1nc1n2CCCC1 | -5% | i |
| Cc1nnsc1-c1c(C(=O)N2CCOCC2)c(C)nn1-c1ccc(Cl)cc1 | -4% | i |
| O=C(CSc1nnc(-c2ccccc2Br)o1)N1CCN(C(=O)c2ccco2)CC1 | ? | 13µM* |
| COc1ccc(C(=O)Nc2cc(C(F)(F)F)ccc2-n2cncn2)cc1 | -18% | -7% |
| Cc1cccc(NS(=O)(=O)c2ccc3nc(-c4ccccc4)[nH]c3c2)c1C | ? | ? |
| CCOc1ccccc1OCCn1ncc2ccc(OC)c(OC)c2c1=O | -6% | -6% |
| O=C(CCn1c(=O)c2ccccc2n(Cc2ccc(Cl)cc2)c1=O)NCc1ccc2c(c1)OCO2 | -14% | -10% |
| O=C(CSc1ccccn1)Nc1ccc2c(c1)CCC2 | -10% | -3% |
| O=C(Nc1ccc(Cl)cc1)c1cc(S(=O)(=O)Nc2ccccn2)ccc1Cl | -14% | -24% |
| O=C(CS(=O)(=O)c1ccc(Cl)cc1)Nc1nc2ccc(Br)cc2s1 | -7% | -8% |
| Cc1nnc(NC(=O)c2ccc(C)c(S(=O)(=O)N3CCOCC3)c2)s1 | -3% | -13% |
| Cc1ccc(C)c(OCCSc2nnc(C)c(=O)[nH]2)c1 | -5% | -10% |
| COC(=O)C1=C(C)NC(=S)NC1c1ccc(OCC(=O)N2CC(C)OC(C)C2)c(OC)c1 (stereo not given) | -10% | -15% |
| O=[N+]([O-])c1cccc(CCl)c1 | -8% | -14% |
| COc1ccc(-c2nnc(SCC(=O)Nc3ccc(C(C)=O)cc3)nc2-c2ccc(OC)cc2)cc1 | -17% | -3% |
| CCOc1ccc2nc(COC(=O)c3ccco3)c(C(C)=O)[n+]([O-])c2c1 | -20% | . |
| Oc1cnn(-c2ccccc2)c1 | -22% | . |
| NC1=NC[C@H](c2ccccc2)N1CC1CCCCC1 | -21% | -27% |
| CCn1c(C)c(C(C)=O)cc(C#N)c1=O | 6% | i |
| O=c1cc(CN2CCN(c3ccccn3)CC2)nc2sccn12 | -10% | i |
| CC1(C)c2ccccc2N2CC(=O)NC21/C=C/c1ccco1 (stereo not given) | 1% | . |
| O=C(O)CNC(=S)N(Cc1cccs1)C1CCCCC1 | 2% | -5% |
| CN1c2ccccc2-c2nc(SCC(=O)Nc3ccccc3C(F)(F)F)ncc2S1(=O)=O | -1% | -13% |
| O=C(N/N=C/c1ccccc1OC(F)F)C1=COCCO1 | -3% | 2% |
| S=C1NC2=C(CCCC2=C2SCCS2)C(c2ccccc2)N1 (stereo not given) | 4% | 9% |
| O=C1CC(N(O)C2CC(=O)N(Cc3ccccc3)C2=O)C(=O)N1Cc1ccccc1 (stereo not given) | 8% | -6% |
| S=C(NCc1ccccc1)NCc1ccco1 | -11% | -16% |
| COCCCNC(=O)c1cc(-c2cccnc2)nc2ccccc12 | -9%&-3% | -13%&-15% |
| C[C@@H]1CN([C@@H](C)CO)C(=O)CCCn2nncc2CO[C@@H]1CN(C)S(C)(=O)=O | -6% | ? |
| COc1ccccc1P(=O)(Cc1ccccc1[N+](=O)[O-])c1ccccc1 (stereo not given) | -8% | i |
| CSc1ccc(/C=N/n2c(C3CCCCC3)n[nH]c2=S)cc1 | -5% | i |
| COc1cccc(C2c3c(-c4cc(Cl)c(C)cc4O)n[nH]c3C(=O)N2Cc2cccnc2)c1 (stereo not given) | ? | . |
| COc1cccc(/C=N/NC(=O)c2cnccn2)c1O | -5% | 4.5µM* |
| CCCCn1c(N)c(N(CC(C)C)C(=O)c2cc3c(s2)CCC3)c(=O)[nH]c1=O | 1% | -8% |
| Cc1nc(Nc2ccccc2)sc1C(=O)c1ccccc1 | -5% | -22% |
| Oc1ccccc1-c1nc(/C=C/c2ccc(F)cc2)no1 | 8% | -12% |
| Cc1ccccc1N(CC(=O)Nc1ccc(S(=O)(=O)N2CCOCC2)cc1)S(C)(=O)=O | -9% | -10% |
| CCC(CC)c1nnc(NC(=O)Cc2ccccc2[N+](=O)[O-])s1 | -7% | i |
| CC(=O)Nc1ccc(S(=O)(=O)N(C)CC(=O)N/N=C/c2cccc(O)c2)cc1 | 3% | -2% |
| O=C1NC[C@@H](c2ccccc2)OC(=O)[C@H](Cc2ccc(F)cc2)C/C=C\C[C@@H]1CC(=O)N(CCO)Cc1ccccc1 | ? | i |
| CC1(C)Cc2c(sc(NC(=O)Cc3ccccc3)c2C#N)CO1 | -7% | -7% |
| COc1c(O)ccc(C2NC(=O)NC(C)=C2C(=O)Nc2ccccc2C)c1[N+](=O)[O-] (stereo not given) | 8% | -6% |
| CN(C)c1ccc(NC(=O)CCSc2nc(-c3ccco3)cc(C(F)(F)F)n2)cc1 | -8%[7.34 µM] | -15%[7.34 µM] |
| Cn1c(C2CCC2)nc2cc(C(=O)N3CCOc4ccccc4C3)cc(NC(=O)C3CCCO3)c21 (stereo not given) | -4% | -18% |
| O=C(CNC(=O)Cc1ccccc1)NCC(=O)OCC(=O)c1cccc2ccccc12 | 21% | i |

(next part)
| Molecule | Vaccinia Venus | VACV mCherry inh |
| --- | --- | --- |
| CCOc1cccc(-c2c(C(=O)N/N=C/c3c(F)cccc3Cl)nnn2-c2nonc2N)c1 | -23% | -18% |
| O=C1C(Cl)=C(NCCCO)C(=O)c2ccccc21 | -10% | . |
| CC1(C)O[C@H]2OC([C@H](O)CON3C(=O)c4ccccc4C3=O)[C@H](O)[C@H]2O1 (stereo not given in full) | -8% | i |
| CC(C)(C)OC(=O)N1CCc2onc(-c3ccc(Br)cc3)c2C1=O | -12% | -6% |
| Brc1ccc(-c2noc(CCc3ccccc3)n2)o1 | -3% | -11% |
| CCOC(=O)c1ccc(-c2ccc(C(=O)Nc3cccnc3)o2)cc1 | -23% | . |
| C[C@@H]1CN([C@@H](C)CO)C(=O)CCCn2nncc2CO[C@H]1CN(C)S(=O)(=O)c1ccc(-n2cccn2)cc1 | -10% | -11% |
| Cc1ccc(-c2nc(CS(=O)(=O)CC(=O)NCc3cccc(F)c3)c(C)o2)cc1 | -23% | -13% |
| CCOC(=O)C1=C(C)NC(=S)NC1c1ccco1 (stereo not given) | 0% | i |
| CN(C)/C=N/c1c(C#N)cnn1C | -6% | i |
| Cc1oc(-c2ccccc2F)nc1CS(=O)(=O)CC(=O)NC1CCCC1 | -9% | i |
| Cc1onc(-c2ccccc2)c1C(=O)Nc1ccccc1NC(=O)c1c(-c2ccccc2)noc1C | 0% | -9% |
| CCOC(=O)c1ccc(N2CCN(C(C)=O)CC2)c(NC(=O)c2cccnc2)c1 | -4% | i |
| c1ccc(-c2nnsc2-c2ncc[nH]2)cc1 | -6% | -6% |
| COc1ccc(-c2cc(C(=O)NCCCN3CCOCC3)on2)cc1OC | -14% | -21% |
| O=C(CSc1ccccc1)Nc1nccs1 | -8% | i |
| NS(=O)(=O)c1ccc(NC(=S)Nc2ccc(C(=O)N3CCCCC3)cc2)cc1 | 2% | -14% |
| COc1ccc(OC)c(N2C(=O)c3cccnc3C2=O)c1 | -14% | i |
| Cc1ccc(-n2c(SCCN)nnc2-c2cccc(C)c2)cc1 | -15% | -13% |
| COc1ccc(C(=O)Nc2ccccc2C(=O)OCc2cc(=O)n3c4c(sc3n2)CCCC4)cc1 | -7% | -14% |
| CCC(C)NC(=O)Cn1c(=O)n(-c2ccc(OC)c(OC)c2)c(=O)c2ccccc21 (stereo not given) | 15% | 8% |
| CNC(=O)CSc1nnc(-c2cnccn2)n1C | -23% | -13% |
| Cc1ccc(C(=O)C(C)OC(=O)Cn2cnc3c2c(=O)n(C)c(=O)n3C)cc1 (stereo not given) | 0% | -11% |
| O=C(Cn1c(=O)n(Cc2nc(-c3ccccc3)no2)c(=O)c2cc3c(cc21)OCO3)Nc1ccc(Cl)cc1 | -10% | -11% |
| Cc1cc(C)nc(NC2=NCC(=O)N2c2ccccc2Br)n1 | -8% | i |
| Cn1c(=NC(=O)c2ccc(S(=O)(=O)N3CCCc4ccccc43)cc2)sc2cc(S(C)(=O)=O)ccc21 | -9% | -2% |
| Cn1c(SCC(=O)Nc2ccc3cn[nH]c3c2)nnc1-c1cccs1 | -21% | . |
| Cc1cnc(C(=O)OCC(=O)Nc2cc(Cl)ccc2C#N)cn1 | 1% | -14% |
| COc1cccc(C2C(C#N)=C(N)Oc3cc(C)n(Cc4ccco4)c(=O)c32)c1 (stereo not given) | -9% | -14%[1.46 µM] |
| Cc1ccc(CNC(=O)C2CCN(S(=O)(=O)c3c(C)noc3/C=C/c3ccco3)CC2)cc1 | -27% | -3% |
| CCCCC(CC)CNC(=O)C1CCN(S(=O)(=O)c2cccc3nsnc23)CC1 (stereo not given) | 0% | -12% |
